ClpP mod: qHTS Assay for Activators of ClpP; ATP-dependent Clp protease proteolytic subunit (Bacillus subtilis (strain 168)), P80244; purified B. subtilis ClpP, FRET peptide cleavage, 20 min; Potency, µM (titrated, usually from 57.5 µM), for the others: at the highest dose activity change, negative = active; 340,000 tested, 1.9% active; AID 651965, 2013; active = well fitted falling curve with a large enough effect; inconclusive = small, poorly fitted or top-dose-only effect; inactive = no such curve, though single readings can be large or run the other way; note: potency is the fitted concentration of half-maximal effect; the source files actives as falling curves though it sought activators and does not explain the sign; nearly all actives have a fitted effect of over 65% in size; many hits overshoot -100%
Target sequence (P80244 whole entry, looked up): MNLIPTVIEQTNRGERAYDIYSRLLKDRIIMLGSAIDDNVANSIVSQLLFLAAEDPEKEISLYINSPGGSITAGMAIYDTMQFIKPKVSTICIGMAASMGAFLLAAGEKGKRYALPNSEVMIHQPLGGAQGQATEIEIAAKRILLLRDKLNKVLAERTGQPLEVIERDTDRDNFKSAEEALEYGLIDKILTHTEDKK
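Purified B. subtilis ClpP, 10 microg/mL final in Tris/HCl pH8 with KCl, BSA, glycerol and Tween-20, cleaved an Abz/nitrotyrosine-quenched decapeptide. Fluorescence (ex 320, em 430) was read at 0 and 20 min at room temperature. Delta was normalized to 5.8 microM ADEP and DMSO/no-enzyme controls.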
PINK1 expr mod: changes PINK1 expression; PINK1 immunofluorescence, high-content cytometry, 24 h; Potency, µM (series often up to 76.6 µM), without a hit: at the highest dose activation (PINK1 increase), hits mostly activators; 410,000 tested, 0.2% active; AID 624263; active = well fitted activation curve with a large enough effect; inconclusive = small, poorly fitted or top-dose-only effect; inactive = flat fitted curve, though single readings scatter; cell line not stated here;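 note: potency is the fitted concentration of half-maximal effect; % of control where 0% means no effect; nearly all actives have a fitted effect of over 65% in size; a mitochondrial uncoupler was the plate control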
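Compound titrations (5 concentrations, 24 h) on a stable cell line; DMSO and CCCP controls. Endpoint: fixed-cell PINK1 immunofluorescence with mitochondrial, cell and nuclear markers, scanned by microplate cytometer.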
TRPML1 blocker: blocks the human TRPML1 channel; Q9GZU1; TRPML1-inducible cells, Ca2+ dye fluorescence, FDSS; stronger effect = lower value; inhibition of EC80 agonist-evoked calcium signal; activity change, negative = inhibition, % (no concentration beside the values); 390,000 tested, 0.02% active; in the data active means activity change below about -50%; inconclusive means about -30% to -50%; inactive means above about -30%;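 note: stimulus is agonist 54-4 at its EC80 concentration; % is set by controls: 0 for no effect and ±100 for the full control effect; compound concentration not given in the record; the text of the record puts the active cut at -80%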
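TRPML1-DL cells, Tet-induced overnight (~16 h, 37 °C) at 1,500 cells/well, were loaded with Ca8 no-wash dye plus quencher for 45-90 min at room temperature. Compounds were pinned during FDSS kinetic reading; agonist 54-4 at EC80 (4 uM final) then added.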
TRPV1 potentiator: potentiators of human vanilloid receptor 1 (TRPV1). Q8NER1. TRPV1-expressing cells, Fluo-8 calcium influx, capsaicin EC20 potentiation; host cell line not named in the record; control for the full effect not named in the record. potentiation, % at 8.33 µM. 320,000 tested, 0.02% active; active means potentiation above 80%; inconclusive means 30% to 80%; inactive means below 30%; note: 0% is about no effect
Target sequence (Q8NER1 whole entry, looked up): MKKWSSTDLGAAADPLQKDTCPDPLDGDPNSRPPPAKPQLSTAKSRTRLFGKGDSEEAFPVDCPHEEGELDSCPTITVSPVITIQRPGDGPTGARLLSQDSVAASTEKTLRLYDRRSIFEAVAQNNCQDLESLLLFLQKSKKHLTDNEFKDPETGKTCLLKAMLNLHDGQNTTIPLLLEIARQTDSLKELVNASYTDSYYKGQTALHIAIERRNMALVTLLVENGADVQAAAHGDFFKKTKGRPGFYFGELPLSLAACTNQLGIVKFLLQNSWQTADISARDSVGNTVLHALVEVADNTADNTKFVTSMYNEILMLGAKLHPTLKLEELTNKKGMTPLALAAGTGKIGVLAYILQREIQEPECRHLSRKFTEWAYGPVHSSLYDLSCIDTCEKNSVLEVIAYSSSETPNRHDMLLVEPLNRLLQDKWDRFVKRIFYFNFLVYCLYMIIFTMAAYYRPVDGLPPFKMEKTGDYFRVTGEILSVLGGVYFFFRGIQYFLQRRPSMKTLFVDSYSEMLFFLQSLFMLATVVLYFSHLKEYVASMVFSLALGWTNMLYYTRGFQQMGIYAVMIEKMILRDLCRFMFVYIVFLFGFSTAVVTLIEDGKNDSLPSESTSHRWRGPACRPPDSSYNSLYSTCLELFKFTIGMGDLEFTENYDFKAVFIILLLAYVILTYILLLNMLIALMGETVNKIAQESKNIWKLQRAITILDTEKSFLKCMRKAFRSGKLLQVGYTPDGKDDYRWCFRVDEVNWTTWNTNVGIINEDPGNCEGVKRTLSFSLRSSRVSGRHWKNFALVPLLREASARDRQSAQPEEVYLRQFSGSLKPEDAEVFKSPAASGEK
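Fluo-8 calcium influx in TRPV1-expressing cells, kinetic read (ex 480/em 520 nm). Compound added and read 3 min for agonist activity, followed by capsaicin at EC20 final and 2 min further read for enhancement.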
TRPML1 agonist: human mucolipin-1 channel agonism. 410,000 tested, 0.12% active. TRPML1-expressing cells, Ca2+ dye fluorescence, FDSS; host cell line not named in the record; reference of the full effect not given here. Q9GZU1. activation, % (concentration not given with the values); in the data active = activation above about 50%; inconclusive = about 30% to 50%; inactive = below about 30%; note: 0% is about no effect; the text of the record puts the active cut at 80%
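In this qHTS format, compounds were pin-transferred onto Ca8-dye-loaded TRPML1-DL cells induced with Tet overnight, and intracellular Ca2+ fluorescence was recorded kinetically for 110 s after a 10 s baseline. A subsequent 4uM final 54-4 (EC80) addition followed by a second 110 s read served as the antagonist phase.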
Menin-MLL FL inh: menin-MLL binding inhibition, fluorescein peptide; Fluorescence polarization, fluorescein-MLL peptide displacement from menin; FP activity change, % at 61.4 µM; 290,000 tested, under 10 active; AID 1766; inconclusive = falling polarisation curve, or a change in total fluorescence; inactive = total fluorescence flat and polarisation flat or rising; no compound was filed as active; the % refers to the polarisation; negative = inhibition;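 note: % of control where 0% means no effect; inhibitors lower the polarisation; unlabelled MLL peptide was the positive control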
Sfp PPTase inh: blocks B. subtilis Sfp PPTase activity; Biochemical Sfp PPTase activity, qHTS; Q9F4F7; Potency, µM, for inactives: max response, negative = inhibition, actives largely listed as inhibitors; 310,000 tested, 3.5% active; active = well fitted inhibition curve with a large enough effect; inconclusive = small, poorly fitted or top-dose-only effect, or another doubt; inactive = no such curve, though single readings can be large or run the other way;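 note: the enzyme is Sfp with the accession as filed and its product quenches rhodamine fluorescence; potency is the fitted concentration of half-maximal effect; 0% = enzyme reaction without inhibitor and -100% = no enzyme wells; top concentration of the series not given in the record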
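Fluorescence-quenching assay with 15 nM Sfp, 5 uM rhodamine-CoA and 12.5 uM BHQ-2-labelled ybbR peptide in pH 7.6 Hepes/MgCl2 buffer. Enzyme was pre-incubated with compound for 15 min at room temperature. Rate was taken from the 30-min fluorescence change (525/598 nm).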
* hit, by the source's call; ? = inconclusive; . = no result given; [ ] = remark or other dose.

smiles | Menin-MLL FL inh | Sfp PPTase inh | ClpP mod | TRPML1 blocker | PINK1 expr mod | TRPML1 agonist | TRPV1 potentiator
COCCC(C(=O)Oc1c(C(C)(C)C)cc(C)cc1C(C)(C)C)c1ccccc1 (stereo not given) | . | . | 0.9% | -16 | 30% | 3.1 | -5
CN(c1ccc(-c2csc(NC(=O)CCCc3nc4ccccc4c(=O)[nH]3)n2)cc1)S(C)(=O)=O | . | . | -14% | 5 | 1.9% | 1.0 | .
CCN(CC)CCn1c2c(c(SCC(=O)Nc3nc(C)cs3)nc1=O)CCC2 | . | . | 0.0% | 6 | -1.2% | 0.1 | 3
CC(/C=N\NC(=O)c1ccc2c(c1)OCO2)c1ccccc1 (stereo not given) | -3.7 | 5% | -2.0% | 11 | -0.8% | 0.3 | -21
CCCCN(CCCNC(=O)c1ccc2nc(N3CCOCC3)sc2c1)Cc1ccccc1 | 5.5 | 10% | -23% | 34 | -3.3% | 0.1 | 1
CC1=C(C(=O)N(C(C)C)C(C)C)CC(CC(=O)NC(c2ccccc2)c2ccccc2)C(=O)N1Cc1ccc(C(C)(C)C)cc1 (stereo not given) | . | . | -3.0% | . | 1.5% | 0.0 | .
Cc1cc(C)cc(NC(=O)CN2CCN(CCN=CC3=C(O)CC(C)(C)CC3=O)CC2)c1 | -1.8 | 6% | 2.4% | 5 | 1.0% | -0.7 | -55
COc1ccc(C(=O)Nc2ccc(C(=O)OCc3cc(=O)n4nc(C5CC5)sc4n3)cc2)cc1 | . | . | -27% | -8 | 10% | -0.6 | .
COc1ccc(C2c3c(ncn(CCCO)c3=N)Oc3ccc4ccccc4c32)cc1 (stereo not given) | -1.0 | -23% | . | -4 | -1.5% | -0.2 | ?
Cc1c(C(=O)O)sc2c1c(=O)n(Cc1ccccc1)c(=O)n2C | -1.6 | 3% | -2.5% | -19 | -1.5% | 0.3 | 14
CCc1ccc(NC(=O)CSc2nc3ccccc3nc2N2CCCCC2)cc1 | 16 | 8% | -20% | -6 | 0.7% | 0.5 | 3
O=C(Nc1ccc(C(=O)O)cc1)/C(=C\c1cccc([N+](=O)[O-])c1)NC(=O)c1ccc(Br)o1 | 0.4 | 7% | . | 1 | -0.6% | -0.3 | 0
CCOc1ccc(N2C(=O)CC(N3CCC(O)(c4ccc(Br)cc4)CC3)C2=O)cc1 (stereo not given) | 3.9 | -15% | -0.9% | 10 | 2.9% | 0.4 | -1
Cc1cccc(NC(=O)c2cccc3c2C(=O)c2ccccc2-3)c1 | 0.4 | -2% | -4.0% | -2 | 6.5% | 1.0 | .
CC(C(=O)Nc1nnc(C2CC2)s1)N1C(=O)C2CC=CCC2C1=O (stereo not given) | . | . | -0.1% | 6 | -0.3% | -0.3 | 2
O=C(CCc1c[nH]c2ccccc12)NCCc1ccccc1 | -0.4 | 9% | . | -5 | -0.5% | 0.1 | -11
C#CCn1c(=NC(=O)c2cccs2)sc2cccc(OCC)c21 | 1.5 | ? | 3.8% | 77 | 5.2% | -0.2 | 18
O=C(NC1(C(F)(F)F)N=C2SCCN2C1=O)C1CCCCC1 (stereo not given) | -1.7 | 63µM* | ? | -15 | 1.2% | 1.2 | 1
CCOc1ccc(NC2c3ccccc3C(=O)N2c2ccc(Cl)cn2)cc1 (stereo not given) | 4.2 | 3% | 2.3% | 27 | 7.8% | 1.0 | 1
CCC(=O)Nc1cnc(NC(=O)c2cccc(F)c2)cc1C | 3.0 | 11% | -0.6% | -10 | -0.4% | 0.7 | -8
Cc1cc(-c2n[nH]c(=S)n2-c2ccc(F)cc2)nn1C | -3.1 | -16% | -7.0% | -8 | 2.0% | 0.0 | 10
CCOC(=O)c1c[nH]n2c(=O)cc(C)nc12 | -1.3 | -1% | -0.2% | -8 | -0.9% | -0.5 | 11
COc1ccc(CCN2C(=O)C3CC(C)=C(C)CC3C2=O)cc1OC (stereo not given) | 1.5 | 17% | 0.7% | -14 | . | -0.3 | 2
COc1ccc(S(=O)(=O)NCC(c2cccnc2)N2CCN(c3ccccc3)CC2)cc1C (stereo not given) | 3.1 | 0% | -2.8% | 15 | -0.4% | 0.8 | 19
COc1ccc(C(=O)COC(=O)c2ccco2)cc1 | -0.4 | 16% | -0.2% | 0 | 2.4% | -0.9 | -2
O=C(O)C1CCCN(S(=O)(=O)c2cccs2)C1 (stereo not given) | 0.0 | 20% | -1.4% | 7 | 4.1%[38.3 µM] | 0.9 | -6
Cc1ccccc1C(=O)N1CCN=C1SCc1ccc([N+](=O)[O-])cc1 | 3.1 | -11% | -2.9% | 35 | 0.4% | -0.6 | -1
O=C(Nc1ccc(F)cc1)Nc1ccc2c(c1)CCC2 | . | 1% | -2.6% | 3 | -0.5% | 1.1 | -1
COc1cccc(C(=O)NOCc2ccc(C)cc2)c1OC | . | . | -1.2% | -15 | 2.4% | 0.2 | -20
CC(=O)[C@@]1(O)[C@H](C)CC2C3CC=C4CC(OP(=O)(O)O)CC[C@]4(C)C3CC[C@@]21C (stereo not given in full) | -1.5 | -8% | 2.1% | 3 | 4.3% | 3.0 | 15
Brc1ccc(-c2c[n+]3c(n2-c2ccccc2)SCC3)cc1 | -1.7 | 13% | . | 9 | 3.9% | 1.0 | -7
COc1cccc(OCCSc2nc3ccccc3n2CC(=O)N2CCCCC2)c1 | . | . | -1.4% | -12 | -0.2% | -0.5 | .
Cc1ccccc1OCC(=O)Nc1ccc(C)c(S(=O)(=O)N2CCCCCC2)c1 | . | . | -2.4% | 14 | -0.1% | 0.6 | -15
COc1ccc(-c2cnnn2-c2ccc(NC(=O)c3ccc(S(=O)(=O)N4CCCCC4)cc3)cc2)cc1OC | -0.9 | 4% | -17% | 60 | 5.5% | 1.5 | -4
COc1ccc(CCC(=O)N(C)CC(=O)Nc2cc(C)ccc2C)cc1 | -0.3 | 24% | . | 13 | 0.4% | -0.2 | 9
O=C(NC(Cc1c[nH]c2ccccc12)C(=O)O)c1ccc2c(c1)OCO2 (stereo not given) | -11 | 3% | 0.3% | 1 | 1.3% | 1.0 | 7
C(=C\c1nc(N2CCCCCC2)c2ccccc2n1)/c1ccccc1 | 15 | 28µM* | 32µM* | 37 | 35µM* | 1.8 | 13
Cc1nnc2n(c1=O)N=C(c1ccc(Cl)cc1)CS2 | 0.0 | ? | -2.5% | -14 | 0.0% | 0.5 | 4
COc1ccc(-c2noc(CCC(=O)N3CCN(c4cccc(F)c4)CC3)n2)cc1 | . | . | -2.9% | -6 | 0.2% | -0.5 | .
O=C(CSc1nnc(COc2ccccc2)o1)N1CCCCC1 | 3.2 | 7% | . | -9 | -0.1% | -0.2 | -16
O=C(Cc1ccccc1)Nc1cc2c(cc1Cl)OCCCO2 | 7.6 | 4% | . | 16 | -0.2% | -0.9 | -8
CNC(=O)c1sc(-c2ccccn2)nc1C | 5.5 | 15% | . | 13 | 2.5% | 0.7 | -5
COC(=O)Cn1c2ccc(F)cc2c2nc(C)sc21 | 3.3 | -24% | -1.7% | 1 | 3.2%[38.3 µM] | -0.7 | 2
COc1ccc(CCNC(=O)c2ccc(-c3ccc([N+](=O)[O-])cc3Cl)o2)cc1OC | -0.1 | -17% | -0.2% | 2 | 1.2% | 0.5 | -21
O=C(CN1CCC(NC(=O)c2ccccc2)CC1)NCc1ccccc1F | 2.5 | 13% | -2.1% | 2 | 0.3% | -0.8 | 3
Cc1ccc(S(=O)(=O)Nc2cccc3c2O[C@H](CN(C)Cc2ccc(-c4ccccc4)cc2)[C@@H](C)CN([C@H](C)CO)C3=O)cc1 | . | . | 2.1% | -6 | 0.0% | -0.1 | .
Cc1ccccc1NC(=O)COC(=O)c1ccc2c(c1)OCCO2 | . | . | . | 6 | -2.3% | 0.0 | 15
CSc1ccc(S(=O)(=O)NCC(=O)OCC(=O)NCc2ccco2)cc1[N+](=O)[O-] | . | . | . | 20 | 0.1% | 1.1 | 16
COC(=O)CN1C(=O)[C@@H]2[C@H](C1=O)[C@@H]1CC(C(=O)OC)=C[C@@H](C(=O)OC)C3C1=C(C(=O)[C@@]3(C)NC(=O)c1ccccc1)[C@@H]2C (stereo not given in full) | -8.3 | -1% | . | -8 | . | 0.7 | .
CCCCn1c(N)c(N(C)C(=O)c2ccc(-n3cccn3)cc2)c(=O)[nH]c1=O | . | . | -2.0% | -12 | 2.4% | 0.2 | 1

(more compounds)
smiles | Menin-MLL FL inh | Sfp PPTase inh | ClpP mod | TRPML1 blocker | PINK1 expr mod | TRPML1 agonist | TRPV1 potentiator
O=C(NC1=NCCS1)c1cccs1 | -0.8 | ? | 3.5% | 4 | 5.0% | -0.8 | 5
CC(=O)C1=C(O)CCC1=N | 1.9 | 14% | -1.0% | -9 | 0.4% | 1.6 | -7
COc1ccc(/C=C(/NC(=O)c2ccco2)C(=O)N2CCc3ccccc32)cc1OC | -0.8 | -6% | . | -5 | 4.9% | 0.3 | -20
O=C(O)c1ccc(N2C(=O)CC(N3CCC(c4nc5ccccc5[nH]4)CC3)C2=O)cc1 (stereo not given) | 2.1 | -80% | . | 34 | 0.8% | -0.2 | -6
CCOC(=O)C1=CN(Cc2ccco2)S(=O)(=O)N(CC)C1c1ccc(C(F)(F)F)cc1 (stereo not given) | . | . | 0.6% | 16 | 1.5% | 0.9 | .
CC1=CN2C(=N)/C(=C\c3cn(CCCOc4ccccc4)c4ccccc34)C(=O)N=C2S1 | -3.1 | 1% | 0.4% | -12 | 5.2% | 2.5 | 1
O=C(CC1C[C@H](C(=O)N2CCCCC2)[C@@]2(CCc3ccccc3)c3[nH]c4ccccc4c3CCN2C1=O)NCCCn1ccnc1 (stereo not given in full) | . | . | 1.0% | -12 | 0.1% | -0.4 | .
Cc1ccc(S(=O)(=O)N(CCO)c2cc3c(s2)CCCC3)cc1 | -1.2 | -7% | -0.2% | 15 | 13% | 0.6 | -4
O=C(NNc1ccnc2cc(Cl)ccc12)C1CCCCC1 | 3.9 | 7% | 0.0% | 0 | 18% | -1.3 | -18
CS(=O)(=O)N(CC(=O)N1CCc2ccccc2C1)c1ccc(Cl)cc1F | -13 | 0% | . | 5 | -2.1% | -0.2 | -17
COc1ccc(N(C(=O)C(C)C)S(=O)(=O)c2cccc3cccnc23)cc1 | -2.3 | 5% | -1.3% | 3 | -2.3% | 0.6 | -12
Cc1cc(C)cc(NC(=O)CN2CCc3ccccc3C2)c1 | 4.0 | -8% | ? | 4 | 0.9% | -0.2 | -3
